Screens: PubChem BioAssay, National Center for Advancing Translational Sciences (NCATS)
NS1 inh – inhibitors of influenza NS1 protein function; S. cerevisiae slowed by influenza A NS1, growth recovery by OD600; Potency, µM (series often up to 46.1 µM), for the others: at the highest dose activity, positive = more growth; 270,000 compounds, 0.4% hits; also: actives are rising curves; nearly all actives have a fitted effect of over 50% in size
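A cell-based growth assay was used: compounds that relieve NS1-induced slow growth of budding yeast raise OD600. Assay medium was yeast nitrogen base with ammonium sulphate and -URA supplement, pH 6.0, with 2% galactose.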
Cruzain Triton – cruzain (T. cruzi) inhibition with detergent | P25779 | purified cruzain, Z-FR-AMC fluorescence, 0.01% Triton | Potency, µM, inactives show max response, negative = inhibition, actives largely listed as inhibitors | 200,000 compounds, 0.43% hits | AID 1478; active = well fitted curve in the direction sought with a large enough effect; inconclusive = small, poorly fitted or top-dose-only effect, or another doubt; inactive = no such curve, though single readings can be large; an effect the other way counts as inactive or inconclusive;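 also: plate controls were neutral wells for no effect and buffer without enzyme for full effect; nearly all actives have a fitted effect of over 40% in size; top concentration of the series not given in the record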
Target sequence (P25779 123-467 limits assumed): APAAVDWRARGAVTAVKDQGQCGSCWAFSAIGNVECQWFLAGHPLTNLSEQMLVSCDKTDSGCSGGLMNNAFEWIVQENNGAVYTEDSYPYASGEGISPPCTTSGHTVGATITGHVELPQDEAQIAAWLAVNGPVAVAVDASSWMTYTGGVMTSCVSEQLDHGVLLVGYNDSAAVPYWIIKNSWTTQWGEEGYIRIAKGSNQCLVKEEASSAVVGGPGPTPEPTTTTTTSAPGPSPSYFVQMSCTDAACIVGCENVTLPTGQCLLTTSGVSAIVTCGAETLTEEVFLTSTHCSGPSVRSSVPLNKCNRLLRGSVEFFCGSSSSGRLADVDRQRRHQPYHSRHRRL
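Steps: dispense cruzain (1.5 nM final) in acetate buffer pH 5.5 with DTT and 0.01% Triton X-100; pin-transfer compounds; incubate 15 min RT; add Z-FR-AMC (2 uM final); read fluorescence every 30 s, using the 60 s intensity change.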
RE007 growth inh – less growth of the S. pombe RE007 Vpr strain | 360,000 compounds, 0.21% hits | S. pombe RE007 Vpr strain, BacTiter-Glo ATP luminescence, 24 h; control for the full effect not named in the record | Potency, µM (doses to about 92.2 µM), inactives show at the highest dose activity change, negative = less growth; active = well fitted falling curve with a large enough effect; inconclusive = small, poorly fitted or top-dose-only effect; inactive = no such curve, though single readings can be large or run the other way;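 also: % is scaled to controls: 0 for no effect and ±100 for the full control effect; nearly all actives have a fitted effect of over 50% in size; the assay follows cell death caused by Vpr and the record does not say whether a fall means rescue or toxicity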
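Fission yeast RE007 carrying one integrated HIV-1 vpr copy, seeded at OD 0.01 in PMG+AL medium with 23 nL pinned compound. Grown 24 h at 30 degrees; viability read by BacTiter-Glo luminescence after 5 min.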
MARV entry inh – Marburg virus entry inhibition | Marburg virus pseudotyped entry inhibition, cell reporter; control for the full effect not named in the record; about a third of the inactives were read at about 46 µM | Potency, µM (titrated, usually from 37.8 µM), for the others: at the highest dose activity change, negative = inhibition, hits mostly inhibitors | 300,000 compounds, 1.8% hits | AID 540276; active = well fitted inhibition curve with a large enough effect; inconclusive = small, poorly fitted or top-dose-only effect, or effect the other way; inactive = flat fitted curve, though single readings scatter; tested in HEK293 cells; about a fifth of its hits are not listed in these tables; also: % is scaled to controls: 0 for no effect and ±100 for the full control effect; luciferase read-out
StopGo reporter – FMDV 2A StopGo reporter, luciferase signal | human cells with a luciferase reporter of 2A StopGo recoding; control for the full effect not named in the record | Potency, µM (series often up to 57.9 µM), for the others: at the highest dose signal change, negative = less light | 410,000 compounds, 1.2% hits | AID 1159524; active = well fitted falling curve with a large enough effect; inconclusive = small, poorly fitted or top-dose-only effect; inactive = no such curve, though single readings can be large or run the other way; tested in HEK293T cells; also: % is scaled to controls: 0 for no effect and ±100 for the full control effect; nearly all actives have a fitted effect of over 45% in size; luciferase light after 4 h
LASV entry inh – Lassa virus entry inhibition; 300,000 compounds, 1.2% hits; Potency, µM (highest dose often 37.9 µM), inactives show top-dose activity change, negative = inhibition, hits mostly inhibitors; Lassa virus pseudotype entry inhibition, cell reporter; control for the full effect not named in the record; active means well fitted inhibition curve with a large enough effect; inconclusive means small, poorly fitted or top-dose-only effect, or effect the other way; inactive means flat fitted curve, though single readings scatter; tested in HEK293 cells; also: % is scaled to controls: 0 for no effect and ±100 for the full control effect; nearly all actives have a fitted effect of over 50% in size; luciferase read-out
SARS PLpro yeast – SARS-CoV PLP inhibition in yeast | Potency, µM (highest dose often 32.9 µM), without a hit: at the highest dose activity, positive = growth rescue | 330,000 compounds, 0.19% hits | S. cerevisiae expressing SARS-CoV PLpro, growth rescue; control for the full effect not named in the record; also: 0% is about no effect; nearly all actives have a fitted effect of over 55% in size; growth read by luminescence after 48 h
Cruzain inh noDet – inhibitors of Trypanosoma cruzi cruzain without detergent; P25779; purified cruzain, Z-FR-AMC fluorescence, no detergent; Potency, µM, for the others: max response, negative = inhibition, usual class: inhibitors; 200,000 compounds, 2.3% hits; active = well fitted curve in the direction sought with a large enough effect; inconclusive = small, poorly fitted or top-dose-only effect, or another doubt; inactive = no such curve, though single readings can be large; an effect the other way counts as inactive or inconclusive;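 also: plate controls were enzyme without inhibitor for no effect and buffer without enzyme for full effect; nearly all actives have a fitted effect of over 40% in size; top concentration of the series not given in the record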
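Purified cruzain at 1.5 nM, pre-incubated 15 min with compound at room temperature in 100 mM sodium acetate pH 5.5, 5 mM DTT, 0.00005% Triton X-100. Reaction started with 2 uM Z-FR-AMC; AMC fluorescence increase over 60 s gives rate.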
* = called active by the depositor; ? = inconclusive; . = not tested or not shown; & = joins results of further samples; [ ] = dose if it differs, or a comment. Unless noted, calls follow the shape of the dose curve; as a rule, active means well fitted rising curve with a large enough effect; inconclusive means small, poorly fitted or top-dose-only effect; inactive means no such curve, though single readings can be large or run the other way. Potency is read from the fitted curve at half-maximal effect.

No.	compound	NS1 inh	Cruzain Triton	RE007 growth inh	MARV entry inh	StopGo reporter	LASV entry inh	SARS PLpro yeast	Cruzain inh noDet
1	Cc1ccc(Cl)cc1NC(=O)C1CC(=O)Nc2ncnn21 (stereo unspecified)	-58%	.	8%	.	-19%	.	-1%	.
2	COc1ccc(OC)c(C(=O)COC(=O)COc2ccccc2)c1	.	.	-12%	-24%	?	-9%	-6%	.
3	O=C(Cc1ccccc1)NCCc1ccc(Cl)cc1Cl	-8%	-1.2%	-8%	-1%	-5%	17%	5%	-3%
4	Cn1c(=O)c2sccc2n2c(CCCC(=O)N3CCCCC3)nnc12	-17%	.	-2%	.	-16%	.	-5%	.
5	COc1ccc(C(=O)N2C[C@H]3C[C@@H](C2)c2cccc(=O)n2C3)cc1OC	-2%	.	11%	.	-15%	.	8%	.
6	CCOC(=O)c1nnn(-c2nonc2N)c1CNc1ccccc1	-9%	-1.0%	5%	-14%	-14%	1%	-2%	-8%
7	Cc1cccc(NC(=O)N2CCCCCC2)c1C	3%	.	3%	15%&15%[46.1 µM]	23%	4%[46.1 µM]	6%	.
8	COc1ccc2[nH]cc(CCn3ccc(=O)c(C)c3C)c2c1	-6%	.	3%	11%[46.1 µM]	-10%	8%[46.1 µM]	1%	.
9	Cc1ccc(NC(=O)CN(C)c2ccc(S(=O)(=O)N3CCCC3)cn2)cc1	.	.	0%	-19%[46.1 µM]	11%	21%	0%	.
10	COc1cccc(/C=C2\N=C(c3c(-c4ccccc4)noc3C)OC2=O)c1	9%	-3.8%	0%	19%	.	-19%	7%	-16%
11	Cc1[nH]c2ccc(C(=O)NCCCN3CCCCCC3)cc2c1C	2%	.	-9%	-6%[46.1 µM]	-1%	?	3%	.
12	Cc1c(/C=C/C(=O)c2ccccc2)cnn1C	-39%	-2.1%	?	?	36%[activator]	7%	-4%	-9%
13	O=C(COc1ccccc1Cl)NNC(=O)C1CCCO1 (stereo unspecified)	6%	0.2%	-3%	4%	5%	11%	-2%	-3%
14	Cc1cc(C)n(C(=O)N(c2ccccc2)c2ccccc2)n1	-2%	.	15%	.	-20%	.	1%	.
15	COc1ccc(/C=N/NC(=O)c2ccoc2C)cc1OC	-1%	-5.0%	-16%	6%	-12%	?	10%	1%
16	O=P(c1ccccc1)(c1ccccc1)c1ccc(O)cc1	2%	.	-12%	-6%[46.1 µM]	-9%	-11%[46.1 µM]	-6%	.
17	C(=NOCc1ccccc1)c1ccncc1	.	.	-5%	1%[46.1 µM]	41%[activator]	25%[46.1 µM]	.	.
18	Cc1ccc(OCC(O)CNS(=O)(=O)c2ccccc2C(=O)O)cc1 (stereo unspecified)	-87%	-3.6%	4%	2%[46.1 µM]	6%	0%	-36%	1%
19	CCOC(=O)CN(Cc1sccc1C)C(=O)Nc1cccc(OC)c1	1%	-0.4%	-11%	?	29%	13%	13%	14%
20	Cc1cc(C)nc(Nc2n[nH]c(COc3ccc(Cl)cc3)n2)n1	7%	4.2%	-10%	?	0%	-5%	3%	?
21	N#Cc1cccc(NC(=O)Cn2cnc(S(=O)(=O)N3CCCCC3)c2)c1	4%	.	-20%	-12%[46.1 µM]	-4%	-7%[46.1 µM]	-1%	.
22	CC(=O)c1ccc(S(=O)(=O)NCCC(=O)NC2CCN(Cc3ccccc3)CC2)cc1	.	.	19%	?	2%	-23%[46.1 µM]	-27%	.
23	COc1ccc(-c2nc3sc(CCNC(=O)C(=O)Nc4cccc(NC(C)=O)c4)c(C)n3n2)cc1	.	-1.9%	.	.	16%	-2%[46.1 µM]	.	3%
24	CCOC(=O)CNC(=O)CC(c1cc(OC)c(OC)c(OC)c1)N1Cc2ccccc2C1=O (stereo unspecified)	.	-0.3%	.	.	-4%	5%[46.1 µM]	.	8%
25	O=C(OCc1cc(Cl)ccc1OC(F)F)c1cncc(Br)c1	.	.	-9%	-1%[46.1 µM]	-23%	-2%	-13%	.
26	Cc1cc(=O)n2[nH]c(-c3ccc(F)cc3)cc2n1	-8%	-4.2%	6%	22%	11%	-23%	1%	12%
27	Cc1nnc2ccc(-c3cccc(NC(=O)c4ccc(Cl)nc4)c3)nn12	.	.	-6%	?	?	-25%[46.1 µM]	2%	.
28	C#CCOCCOCCOCCNc1nc(N2CCN(C(=O)[C@H](Cc3cc4ccccc4[nH]3)n3cc([C@@H](N)C(C)CC)nn3)CC2)nc(N2CCN(C(=O)[C@H](CCCCN)n3cc([C@@H](N)CC(C)C)nn3)CC2)n1 (stereo partly specified)	3%	.	21%	.	1%	.	-2%	.
29	CC1(C)C(C#N)=C(N)OC2=C1C(=O)CCC2	-3%	3.5%	14%	-4%	.	-5%	-3%	-3%
30	Clc1ccc(Nc2c(-c3cccs3)nc3ccc(Cl)cn23)cc1	.	-1.7%	.	?	47%[activator]	22%[46.1 µM]	.	-8%
31	COc1ccc(-c2cc(C(=O)N3CCOCC3)no2)cc1	-12%	.	2%	?	-35%	?	-4%	.
32	Cc1ccnc(NS(=O)(=O)c2ccc(NC(=O)CCOc3ccccc3)cc2)n1	3%	.	-10%	8%	22%	3%	-6%	.
33	COc1cc(C=NNC(=O)c2ccccc2NS(=O)(=O)c2cccs2)cc(OC)c1O	.	.	4%	-4%	-19%	-2%	13%	.
34	CC1CCCN(CCOCCOc2ccc(Br)cc2Cl)C1 (stereo unspecified)	-18%	3.3%	-11%	16µM*	?	?	-17%	7%
35	COc1ccc(CNCCC(c2ccccc2)C2CCOC(C)(C)C2)cc1 (stereo unspecified)	.	.	-2%	?	-23%	?	0%	.
36	CCc1nnc(NC(=O)c2ccc(COc3ccc(C)cc3)o2)s1	1%	3.6%	5%	15%	-12%	-5%	-1%	25µM*
37	N#CC(=Cc1ccc(O)c(O)c1)C(N)=S	12%	-11%	.	?	.	.	.	-22%
38	CCOC(=O)c1ccc(NC(=O)Cn2nnc(-c3ccc(C(F)(F)F)cc3)n2)cc1	.	0.8%	.	-7%[46.1 µM]	5%	15%[46.1 µM]	.	-8%
39	Cc1ccc(C(=O)NCCC(=O)N2CCCC2)cc1	1%	.	-7%	.	0%	.	-4%	.
40	Cc1cc(=O)[nH]c2sc(C(=O)N3c4ccccc4CC3C)c(N)c12 (stereo unspecified)	.	.	13%	3%	-10%	-17%	1%	.
41	COc1ccc(NC(=O)C2CCCN(S(C)(=O)=O)C2)c(OC)c1 (stereo unspecified)	6%	.	1%	24%[46.1 µM]	-6%	?	-1%	.
42	COc1ccccc1-c1noc(-c2ccc(NCc3ccccc3)c([N+](=O)[O-])c2)n1	.	-5.0%	.	8%[46.1 µM]	32%[activator]	2%[46.1 µM]	.	11%
43	CC(NC(=O)Cn1cc(C(F)(F)F)ccc1=O)c1ccc(F)cc1 (stereo unspecified)	.	.	16%	4%[46.1 µM]	-8%	-14%	1%	.
44	Cc1cccc(Cn2c(Sc3nc(C)cs3)nc3c2c(=O)[nH]c(=O)n3C)c1	?	0.9%	3%	-9%	-10%	-12%	0%	-10%
45	CCOc1ccc2[nH]c(=O)c(C(c3nnnn3Cc3ccco3)N3CCC(C)CC3)cc2c1 (stereo unspecified)	-20%	-9.8%	3%	?	16%	-26%	3%	18%
46	Cc1cc(C)cc(OCC(=O)O/N=C(\N)c2ccccc2Cl)c1	-9%	.	-16%	0%	16%	.	-6%	.
47	CN(C)c1ccc(/C=C(/NC(=O)c2ccccc2)C(=O)NCCCn2ccnc2)cc1	9%	.	-8%	.	76%[activator]	.	2%	.
48	COc1cccc(/C=N\NC(=O)c2cc(OCC(F)(F)F)ccc2OCC(F)(F)F)c1	14%	-8.8%	16%	17%[46.1 µM]	-4%	-12%	5%	-8%
49	O=c1[nH]c(-[n+]2ccccc2)c(/C=N/N=C(\[O-])c2ccccc2)s1	2%	.	19%	-6%[46.1 µM]	-11%	4%	2%	.
50	COc1ccc(-n2cc(C(=O)NCCc3ccc(C)cc3)c3ccccc3c2=O)cc1	.	-4.9%	.	.	-8%	-18%[46.1 µM]	.	25µM*
51	Cc1ccc(NC(=S)N(CCCN2CCCC2)Cc2cccn2Cc2ccc(Cl)cc2)cc1Cl	.	.	-9%	8.9µM*	-22%	1.1µM*	-1%	.
52	C/C(=N/NC(=O)COc1ccc(C(C)(C)C)cc1)c1ccc(N2CCOCC2)cc1	.	.	-3%	-4%	-3%	0.56µM*	.	.
53	CNc1c(NS(=O)(=O)c2ccc(C(C)(C)C)cc2)c(=O)oc2ccccc12	-2%	.	8%	2%[46.1 µM]	-12%	-19%	3%	.
54	O=C(Nc1cc(S(=O)(=O)Nc2ccccc2Cl)ccc1O)c1ccc(F)cc1F	.	.	-19%	?	-3%	-7%[46.1 µM]	-3%	.
55	Cc1n[nH]c(C)c1CCN(C)C(=O)C1CCC(=O)N(CC2CCCCC2)C1 (stereo unspecified)	0%	.	0%	-3%	-28%	1%	-8%	.
56	C/C(CC(=O)Nc1ccccn1)=N\NC(=O)Cc1cccc2ccccc12	16%	-5.7%	-11%	4%	6%	3%	-2%	-3%
57	COC(=O)C(C)N(C#N)c1nc(NC(C)C)nc(SC)n1 (stereo unspecified)	0%	-8.2%	-11%	-22%	0%	0%	3%	-3%
58	CCOc1cc(S(=O)(=O)NCCc2ccccc2C)c(OCC)cc1-n1cnnn1	-10%	0.2%	12%	?	21%	-21%	-1%	?
59	CCN(CC)C(=O)C1CCCN(c2ncnc3c2cnn3-c2cccc(C)c2)C1 (stereo unspecified)	-40%	0.2%	-8%	?	14µM*	-9%	-17%	?
60	COc1cc(/C=N/N2CCCCC2)cc(OC)c1O	4%	.	-10%	?	37%[activator]	3%[46.1 µM]	0%	.
61	Cc1ccc2c(Cl)c(C(=O)Nc3cccnc3)sc2c1	-25%	2.6%	28%	?	-11%	?	-53%	11%
